Compound activity (PubChem BioAssay)
HSD17B inh: blocks hydroxysteroid 17-beta dehydrogenase activity; Q99714; AID 893; 75,000 compounds, 7.6% hits; recombinant HSD17B10, NADH fluorescence kinetic; many of its hits are not listed in these tables; Potency, µM (titrated, usually from 57.1 µM), for the others: at the highest dose activity change, negative = inhibition, actives largely listed as inhibitors; active means well fitted inhibition curve with a large enough effect; inconclusive means small, poorly fitted or top-dose-only effect; inactive means no such curve, though single readings can be large or run the other way;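 further: the protocol describes HADH2 (HSD17B10) and not the HSD17B4 of the title; nearly all actives have a fitted effect of over 70% in size; most hits overshoot -100% by far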
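His-tagged E. coli-expressed HADH2 at 20 nM in 100 mM Tris-HCl pH 9.0 with 0.01 % Tween-20, preincubated 15 min with compound at room temperature. Reaction with 1 mM NAD+ and 90 uM beta-hydroxybutyryl coenzyme A; NADH fluorescence (360/450 nm) read kinetically over 4 min, last minus first point.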
The depositor's hits bear a star; ? = inconclusive; [ ] = remark or other dose. On the % scale 0 is the no-effect control and ±100 the full control effect; potency means the concentration at half of the fitted maximal effect. Only part of the results is shown; the hit share may differ from the screen's.

The first 2 records (preview)
smiles	HSD17B inh
COc1ccccc1-c1nc(C#N)c(N2CCN(c3cccc(Cl)c3)CC2)o1	13µM*
COc1ccc(C2CC(c3ccc(Cl)cc3)n3nc(N)nc3N2)cc1 (stereo not drawn)	6%

Results, from the first entry:
smiles	HSD17B inh
COc1ccccc1-c1nc(C#N)c(N2CCN(c3cccc(Cl)c3)CC2)o1	13µM*
COc1ccc(C2CC(c3ccc(Cl)cc3)n3nc(N)nc3N2)cc1 (stereo not drawn)	6%
O=C(CCCOc1ccc(Cl)cc1Cl)N1CCN(c2ccccn2)CC1	?
Cc1ccc(-n2nc3c(c2NC(=O)C(C)(C)C)CSC3)c(C)c1	-6%
CCCCCCCCCC[Si](C)(C)CCC(=O)N[C@@H](Cc1ccc(C)cc1)c1ccccc1	4%
O=C(O)c1cc2cc(F)ccc2[nH]1	32µM*
COc1cc(OC)c2c(C)cc(=O)oc2c1	3.2µM*
CC1CN(C(=O)CN2C(=O)NC3(CCCCCCC3)C2=O)CC(C)O1 (stereo not drawn)	5%
COc1ccccc1NS(=O)(=O)c1ccc(O)c(C(N)=O)c1	?
Cc1cc(C)nc(N(C#N)CC(=O)c2ccccc2)n1	-9%
CC(=O)OCC(=O)[C@@]1(O)CCC2C3CCC4=CC(=O)CC[C@]4(C)C3C(O)C[C@]21C (stereo partly drawn)	4%
O=C(Nc1ccc2c(c1)OCO2)C1CCCCN1S(=O)(=O)c1ccc(F)cc1 (stereo not drawn)	-7%
COC(=O)c1nn(-c2ccc(-c3ccccc3)cc2)cc1O	32µM*
COc1ccc(C(=O)OC(C)CN2CCOCC2)cc1OC (stereo not drawn)	5%
Cc1occc1-c1nnc(SCCCC(=O)c2ccc(F)cc2)n1C	-2%
Cc1cc(C)nc(SCc2nnc(SCC(=O)Nc3ncc(C)s3)n2Cc2ccco2)n1	-4%
COc1ccc(C2C(C(=O)c3ccco3)=C(O)C(=O)N2CCc2ccccc2)cc1OC (stereo not drawn)	23%
CCc1ccc(NC(=O)Cn2c(=O)n(CCCC(=O)NCc3ccco3)c(=O)c3ccccc32)cc1	3%
COCc1ccccc1Cn1cnc2c1c(=O)n(C)c(=O)n2C	1%
CCOc1cc2[nH]c(=O)n(CCCCCC(=O)NCc3ccc4c(c3)OCO4)c(=O)c2cc1OCC	7%
O=c1c2cc(Cl)ccc2[nH]c(=S)n1Cc1ccco1	-9%
COc1ccc(NC(=O)N2CC3(CCN(S(C)(=O)=O)CC3)C2)cc1	3%
O=C(NCc1ccco1)c1cccc(S(=O)(=O)N2CCCCC2)c1	-1%
COc1ccc(OC)c(CNC(=O)CCc2nc(-c3cccs3)no2)c1	4%
O=C(c1cccc(F)c1)N1CCC2(CCCN(c3cccc(-c4ccccc4)c3)C2)CC1	-17%
CC(C)n1nnnc1C(c1ccc(F)cc1)N1CCN(C2CCCC2)CC1 (stereo not drawn)	-3%
CCOc1ccc(/C(O)=C2\C(=O)C(=O)N(c3cc(C)on3)C2c2ccccc2OC)cc1 (stereo not drawn)	10%
Cc1cc(C)nc(N2CCN(c3ncnc4c3cnn4Cc3ccc(Cl)cc3Cl)CC2)n1	-2%
OC(COc1ccc2ccccc2c1)CN1CCOCC1 (stereo not drawn)	-1%
O=C(CSc1nnc(COc2ccccc2)o1)N1CCN(c2ccccc2)CC1	-12%
CCCCn1c(=O)[nH]c(=O)c2c1nc(COC(=O)c1c(C)noc1C)n2CCC	13%
COC(=O)c1ccc2c(c1)NC(=O)C(N1CCCC1)S2 (stereo not drawn)	7%
COC(=O)N1CCC[C@@]2(CCN(C(=O)NC(C)C)C2)C1	3%
O=C(NCCN1CCCC1)C1(S(=O)(=O)c2ccc(Cl)cc2)CC1	3%
O=C(c1ccc(F)cc1)N1CCN(Cc2ccccc2Br)CC1	-10%
Fc1ccc(CSc2nnc(-c3cccs3)o2)cc1	-6%
Cc1cccc(OCc2n[nH]c(=S)o2)c1	?
O=C(c1ccc(N2CCCC2=O)cc1)N1CCN(c2ccccc2)CC1	2%
COc1ccc(C(=O)COC(=O)CSCc2c(C)noc2C)cc1OC	-8%
CN1CCN(/C(=N\O)c2nonc2N)CC1	4%
CCOC(=O)c1sc2nc(CC(=O)OC)nc(NCc3ccco3)c2c1C	25µM*
Cc1cccc(OCCCC(=O)O)c1	9%
CCS(=O)(=O)N1CCC(C(=O)NCCc2ccc(C)cc2)CC1	3%
O=C(NCc1ccncc1)c1cccc(Cn2cc(Br)cn2)c1	-3%
O=C(c1ccco1)N1CCC2(CC1)CCN(C(c1ccccc1)c1ccccc1)CC2	-2%
CCCN(CCC)CCNC(=O)C1CCCN(S(=O)(=O)c2ccc3c(c2)oc(=O)n3C)C1 (stereo not drawn)	9%
COC(=O)C1=C(C)NC2=C(C(=O)c3ccccc32)C1c1ccc(-c2ccc(C(=O)O)cc2)o1 (stereo not drawn)	?
O=C(CN1C(=O)c2ccccc2C1=O)Nc1ccccc1F	13%
O=C1c2ccccc2C(=O)N1c1ccc(S(=O)(=O)N2CCN(c3ccccc3)CC2)cc1	12%
Cc1cccc2cc(COC(=O)c3cccnc3)c(=O)[nH]c12	-6%

More results follow:
smiles	HSD17B inh
Cc1cccc2cc(C(c3nnnn3CC3CCCO3)N3CCCc4ccccc43)c(=O)[nH]c12 (stereo not drawn)	7%
CCCn1c(CNC(=O)c2cccs2)nc2ccccc21	7%
CCOc1ccc(OCC)c(NC(=O)CSCC(=O)O)c1	3%
COC(=O)c1ccc(NC(=O)C2CCCN2S(=O)(=O)c2ccc(F)cc2)cc1 (stereo not drawn)	5%
COCCN(C(=O)CCC(=O)Nc1cccnc1)C(C(=O)NC1CCCCC1)c1ccccc1 (stereo not drawn)	9%
CCN1CCN(CCCNC(=O)C(NC(=O)C2CCC(C)CC2)C(C)C)CC1 (stereo not drawn)	10%
COc1ccc(N2C(=O)NC3CC2(C)Oc2ccc(Cl)cc23)cc1OC (stereo not drawn)	14%
CCOc1ccc(NC(=O)CCC(=O)OC)cc1	9%
CC(=O)OC[C@H]1O[C@@H](O/N=C(\C)CCC(=O)OC[C@@H]2O[C@H](C#Cc3ccccc3)C=C[C@@H]2Oc2ccc(C)cc2)[C@H](OC(C)=O)[C@@H](OC(C)=O)[C@H]1OC(C)=O	-4%[11.4 µM]
Cc1cc(NS(=O)(=O)c2ccc(NC(=O)CCc3ccccc3)cc2)no1	0%
COC(=O)[C@@]1(Cc2ccc(OC)cc2)[C@H]2c3cc(C(=O)N(C)C)n(CCF)c3C[C@H]2CN1C(=O)c1ccccc1	-1%
CCn1c(Cc2ccccc2)nnc1SCC(=O)Nc1cc(C)on1	0%
COCCN1Cc2cccc(C(=O)NC3CCCCCC3)c2C1=O	4%
COc1cc(-c2nnc(SCC(=O)c3ccccc3)o2)cc(OC)c1OC	-7%
Cc1onc(-c2ccccc2Cl)c1C(=O)N1CCc2ccccc21	-7%
Cn1nnnc1SCCNCC#Cc1ccccc1	9%
COc1ccc(C2CC(c3cccc(C)c3)n3nc(N)nc3N2)cc1 (stereo not drawn)	16%
COc1ccc(N2CCN(C(=O)c3ccc(CNc4c(N5CCOCC5)c(=O)c4=O)cc3)CC2)cc1	6%
CN(C)CCN1C(=O)C(O)=C(C(=O)c2ccco2)C1c1ccccc1F (stereo not drawn)	-10%
CC(C(=O)NCc1ccccc1)N1C(=O)C2CC=C(Cl)CC2C1=O (stereo not drawn)	-6%
N/C(CC/C(N)=N/O)=N\O	1%[11.4 µM]
CC1CN(c2oc(-c3ccco3)nc2S(=O)(=O)c2ccccc2)CC(C)O1 (stereo not drawn)	-6%
COc1ccc(NC(=O)CS(=O)CC(=O)NCc2cccc(C(F)(F)F)c2)cc1 (stereo not drawn)	2%
COc1ccccc1CNC(=O)COC(=O)c1ccc(S(=O)(=O)N2CCCC2)cc1	10%
COC(=O)c1cc2nc(-c3ccc(OC)c(OC)c3)cc(C(F)(F)F)n2n1	-16%
COc1ccc(N2CCN(C(=O)c3ccc4c(=O)n(CC5CCCO5)c(=O)[nH]c4c3)CC2)cc1 (stereo not drawn)	1%
N#Cc1nc(COc2ccccc2F)oc1NCc1ccc(F)cc1	-7%
C=CCOc1cccc(C2c3c(oc4ccccc4c3=O)C(=O)N2c2ccccn2)c1 (stereo not drawn)	0%
CCOc1ccc(NC(=O)CSc2nc3cccnc3n2CC)cc1	-15%
CCCC(=O)NCCc1c2n(c3ccc(OC)cc13)CCCc1ccccc1-2	25µM*
CC1=C(C(=O)OC2CCCCCCC2)C(c2cccc(O)c2)NC(=O)N1 (stereo not drawn)	?
O=C(Cn1[nH]c(=O)c2ccccc2c1=O)NCc1cccnc1	2%
O=C(c1ccco1)N1CCN(C(=O)C2CC(c3ccc(F)cc3)=NO2)CC1 (stereo not drawn)	1%
Nc1n[nH]c(-c2ccc(F)cc2)n1	-5%
COc1ccc(Cl)cc1C(=O)CSc1nnnn1C1CCCC1	?
CC(C)Oc1ccc(CC2CC(=O)NC2=O)cc1 (stereo not drawn)	6%
COc1ccc(-c2cc(C(=O)N3CCCCC3)no2)cc1OC	-10%
O=C(Nc1ccc(F)c(F)c1)NC1CCCCC1	2%
CC(C)=CCC/C(C)=C/CO/N=C1/C[C@@H](O)[C@@H](O)[C@@H]2[C@@H]3C(=O)N(C[C@@H]4CCCO4)C(=O)[C@H]3CC[C@@H]12	-3%[11.4 µM]
CCOc1ccccc1OCC(=O)Nc1ccc(N2CCCCC2)cc1	-1%
Cc1ccc(-n2ncc3c(=O)n(Cc4ccccn4)cnc32)cc1C	-11%
COc1ccc(OC)c(Nc2nc(-c3sc(N)nc3C)cs2)c1	-12%
O=C(NCC1CCCO1)c1nn2cccnc2c1Cl (stereo not drawn)	9%
CC(=O)Oc1ccc(C(=O)Nc2nccs2)cc1	-6%
Cc1ccsc1C(=O)OCc1csc(-c2ccccc2)n1	-21%
c1ccc2nc3c(nc2c1)CCc1nonc1-3	1%
N[C@@H](CSS(=O)(=O)O)C(=O)O	?
NCCCCCNC(=O)/C=N\O	10%
COc1ccc(-c2onc(C)c2-c2ccc(C(=O)OC(C)C)o2)c(O)c1	6%
C=C(C)CSc1nc2c(cc1C#N)CCC2	-2%

The list continues.
smiles	HSD17B inh
CCOc1ccccc1C(=O)NC(C(=O)OCC(=O)Nc1nnc(-c2ccccc2)o1)C(C)C (stereo not drawn)	-22%
O=C1OC(O)C(C(Cl)Cl)=C1Cl (stereo not drawn)	-4%
Nc1c(C2=NCCO2)nnn1Cc1ccccc1	6%
N#Cc1nc(-c2ccco2)oc1N1CCN(Cc2ccccc2)CC1	?
O=C1CCCCC(=O)N(c2ccccc2)c2ccccc21	3%
CCc1nc(SCC(=O)c2cc(C)ccc2C)n[nH]1	?
CCC(=O)N1CCc2cc(S(=O)(=O)N3CCc4ccccc4C3)ccc21	-7%
CN(c1ccc(F)cc1)S(=O)(=O)c1ccc2[nH]cc(C(=O)O)c(=O)c2c1	-26%
Cc1[nH]c(=O)[nH]c(=O)c1CSc1nnc([C@H](CC(C)C)NC(=O)OC(C)(C)C)o1	5%
CCN1C(=O)CC(n2c(C)nc3ccccc32)C1=O (stereo not drawn)	4%
O=C(CSc1nnc2scc(-c3ccccc3)n12)Nc1nsc(-c2ccccc2)n1	?
CC(=O)Oc1ccc(NC(=O)Cc2ccccc2)cc1	5%
Cc1ccccc1-c1nc(CS(=O)(=O)CC(=O)NCc2ccc3c(c2)OCO3)c(C)o1	-2%
O=C(CN1CCN(c2ccccn2)CC1)NC1CCCC1	4%
O=C(Nc1nsc(-c2ccccc2)n1)c1cccs1	-12%
COc1ccccc1N1CCN(C(c2ccc(F)cc2)c2nnnn2C(C)C)CC1 (stereo not drawn)	-2%
C=CCNc1ncnc2ccc(Br)cc12	2%
Cn1cccc1C(=S)N=P(C1CCCCC1)(N1CCOCC1)N1CCOCC1	-5%
COc1cc(C(=O)Nc2ccc(NC(=O)c3ccco3)nc2)cc(OC)c1OC	0%
Cc1ccccc1Oc1ccc(S(=O)(=O)NCCC(=O)O)cc1	1%
O=C(NCCN1CCCC1=O)Nc1ccccc1	2%
CN(C)c1oc(COc2ccccc2F)nc1C#N	-9%
COc1ccc(-c2cc3ccccc3n2CC(O)CN2CCOCC2)cc1 (stereo not drawn)	13µM*
CCOc1ccccc1NC=C1C(=O)OC(C)(C)OC1=O	2%

In a second layout: results already given
SMILES: CCOc1ccccc1C(=O)NC(C(=O)OCC(=O)Nc1nnc(-c2ccccc2)o1)C(C)C (stereo not drawn)
- HSD17B inh: -22%
SMILES: Cc1ccccc1-c1nc(CS(=O)(=O)CC(=O)NCc2ccc3c(c2)OCO3)c(C)o1
- HSD17B inh: -2%
SMILES: O=C(CSc1nnc2scc(-c3ccccc3)n12)Nc1nsc(-c2ccccc2)n1
- HSD17B inh: ?
